MLL AF4-AF9 inh – inhibitors of human MLL-AF4/AF9 interaction | P42568 | AlphaScreen, biotin-AF4 peptide binding to FLAG-AF9 | inhibition, % at 10 µM | 0.47% of 350,000 active;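 active = every replicate reaching a set inhibition limit, whatever the replicate mean, cut at about 25% in these data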;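 note: 0% = plate neutral control median and 100% = total signal loss; the record names both 10 and 1 µM as test concentration; the first replicate is given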
Target sequence (P42568 whole entry, looked up): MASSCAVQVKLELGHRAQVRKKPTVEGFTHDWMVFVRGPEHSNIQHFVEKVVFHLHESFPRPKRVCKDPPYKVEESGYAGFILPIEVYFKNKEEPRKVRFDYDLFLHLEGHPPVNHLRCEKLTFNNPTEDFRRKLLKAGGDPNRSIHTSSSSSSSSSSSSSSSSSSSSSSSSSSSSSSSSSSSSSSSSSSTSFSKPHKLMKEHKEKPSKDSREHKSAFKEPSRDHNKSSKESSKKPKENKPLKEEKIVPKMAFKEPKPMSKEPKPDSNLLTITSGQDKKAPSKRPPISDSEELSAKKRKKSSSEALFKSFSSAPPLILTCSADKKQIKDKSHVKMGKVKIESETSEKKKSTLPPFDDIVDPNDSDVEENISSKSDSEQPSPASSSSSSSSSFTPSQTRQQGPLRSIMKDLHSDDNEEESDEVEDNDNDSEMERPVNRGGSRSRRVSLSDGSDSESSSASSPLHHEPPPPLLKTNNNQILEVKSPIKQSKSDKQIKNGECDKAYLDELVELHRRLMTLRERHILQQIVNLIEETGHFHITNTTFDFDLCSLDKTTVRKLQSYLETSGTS
E coli growth – E. coli growth inhibition. AID 1053175. 0.21% of 330,000 active. Escherichia coli growth, OD600, 23 h; active compounds read low. OD600 absorbance (concentration not given with the values);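 active = OD600 absorbance below the run mean of sample wells minus 3.6 SD, in any replicate, cut at about 0.56 in these data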;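 note: stock transfer was 300 nL into about 60 µL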
UCH37 inh – human UCH37 deubiquitinating enzyme inhibition | inhibition, % (test concentration not listed) | 0.33% of 330,000 active | purified proteasome/UCH37, Ub-AMC cleavage fluorescence;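 active = mean of two replicates above 20%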;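 note: 0% = compound-free wells with enzyme and 100% = wells lacking proteasome; stock transfer was 100 nL into about 20 µL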
Target sequence (Q9Y5K5 whole entry, looked up): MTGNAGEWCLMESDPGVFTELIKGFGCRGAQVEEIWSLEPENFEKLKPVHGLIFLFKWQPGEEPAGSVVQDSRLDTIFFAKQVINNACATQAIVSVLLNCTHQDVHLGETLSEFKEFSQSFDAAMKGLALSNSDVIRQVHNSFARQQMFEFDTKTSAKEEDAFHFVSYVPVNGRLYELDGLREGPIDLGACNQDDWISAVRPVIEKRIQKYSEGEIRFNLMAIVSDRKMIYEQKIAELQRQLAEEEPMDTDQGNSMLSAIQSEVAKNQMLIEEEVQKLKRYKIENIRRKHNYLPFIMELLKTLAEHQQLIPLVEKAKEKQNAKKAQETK
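Material: Human UCH37 enzyme supplied as purified proteasome complex | Schedule: 30 min preincubation with enzyme, 25 min cleavage at room temperature | Detection: AMC fluorescence 355/460 nm | Measure: % inhibition of Ub-AMC cleavage fluorescence | Controls: Wells without proteasome as full block, compound-free enzyme plus substrate as uninhibited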
Bfl-1 A1 inh – inhibitors of the anti-apoptotic protein A1, read as caspase activation. MEF A1-2A-BIM cells, Caspase-Glo 3/7 luminescence, 3 h; percent of clofoctol response, vehicle zero. caspase activation, % (no concentration beside the values). 0.066% of 330,000 active. AID 2462;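 active = over half of replicate activation scores above 10%, or exactly half above 10 with the replicate mean above 10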;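 note: wells of about 30 µL received 50 nL stock; many hits fall short of the cut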
FGF22 binding – FGF22 (human) thermal shift binding; 1.5% of 340,000 active; recombinant FGF22 thermal shift, SYPRO orange fluorescence; percent of sucrose octasulfate shift, DMSO zero; calls only at 9.99 µM; Q9HCT0;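 active = melting point raised past a set limit in the mean and every replicate; three in four hits are not shown here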
Target sequence (Q9HCT0 whole entry, looked up): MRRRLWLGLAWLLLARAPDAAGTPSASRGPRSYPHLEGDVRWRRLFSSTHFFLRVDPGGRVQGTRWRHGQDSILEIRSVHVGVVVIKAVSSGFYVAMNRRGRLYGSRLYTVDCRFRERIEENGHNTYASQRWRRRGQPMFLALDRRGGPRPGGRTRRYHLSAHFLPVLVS
T cruzi inh – blocks replication of Trypanosoma cruzi; 1.4% of 300,000 active; AID 1885; inhibition, % (no concentration beside the values); T. cruzi beta-gal in NIH3T3, luminescence, 90 h;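 active = mean inhibition across valid replicates above about 55%, limit read from the data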;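 note: signal also drops with host cell toxicity which is not excluded here; 0% = plate median of DMSO wells and 100% = zero luminescence signal; higher percent means less beta-gal luminescence so fewer parasites; stock transfer was 50 nL into about 50 µL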
Beta apoptosis – blocks beta cell apoptosis | 0.8% of 300,000 active | INS-1E cytokine-induced death, ATP luminescence, 48 h; percent of positive-control rescue, neutral wells zero | protection from apoptosis, % (test concentration not listed);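 active = all replicates at 75% or more, or half of them and the mean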;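 note: 0% = cytokine-treated negative control wells and 100% = positive control rescue; higher means more ATP so stronger rescue from cytokine killing; wells of about 40 µL received 100 nL stock; the first replicate is given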
rRNA inh HTS – inhibits bacterial ribosomal RNA function over humanized ribosomes. E. coli WT GFP vs humanized-ribosome RFP mutants, fluorescence, 24 h; active compounds read low; DMSO median 0, no signal -100. GFP signal change (wild-type ribosome), % (test concentration not listed). 1.6% of 350,000 active;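 active = significant combined selectivity score with lowered wild-type GFP, culture density cut under 30%, mutant RFP and density less affected; inactive = any of these conditions unmet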; note: one replicate is shown; some compounds called inactive have numbers as strong as hits
rRNA inh HTS OD600 – second read-out of rRNA inh HTS, no call of its own (marks repeat the call); OD600 change, %; measured here: OD600 growth;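 optical density of the mix in the first replicate; 0 = DMSO median and -100 = no signal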
rRNA inh HTS RFP – recorded beside rRNA inh HTS, whose call it bears; RFP signal change, %; measured here: RFP humanized mutant strains;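 first replicate; 0 = DMSO median and -100 = no signal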
The depositor's hits bear a star; i = inactive; . = not tested or not shown.

SMILES	MLL AF4-AF9 inh	E coli growth	UCH37 inh	Bfl-1 A1 inh	FGF22 binding	T cruzi inh	Beta apoptosis	rRNA inh HTS	rRNA inh HTS OD600	rRNA inh HTS RFP
Cc1ccc(NC(=O)CN2C(=O)COc3ccc(S(=O)(=O)N4CCOCC4)cc32)cc1F	1.9	0.69	0.5	2.7	i	-0.1	-5.0	-0.5	2.7	-1.0
CCCCC(=O)N=c1sc2c(OC)ccc(OC)c2n1C	5.8	0.704	1.5	-1.0	i	23.6	2.4	7.0	1.5	4.1
O=c1ccc(-c2ccc(S(=O)(=O)Nc3ccccc3Cl)o2)n[nH]1	-1.7	0.697	2.8	1.0	i	-9.3	-4.5	8.5	7.7	0.0
CCN(Cc1ccccc1)C(=O)CN1C(=O)COc2ccc(S(=O)(=O)N3CCCCCC3)cc21	3.1	0.681	5.8	-1.2	i	7.2	4.3	-8.5	-42.4	-3.4
CCc1c(C(=O)Nc2ccc(C)c(C)c2)[nH]c(C)c1C(C)=O	-1.8	.	.	0.0	i	29.0	3.0	2.8	-6.7	-2.0
CC(=O)c1nn(-c2ccc(Br)cc2)cc1C(=O)c1ccco1	.	0.736	0.0	0.8	.	2.1	-0.4	.	.	.
CC(OC(=O)c1ccc(S(=O)(=O)NCc2ccco2)cc1)C(=O)Nc1ccc(Cl)cn1 (centres undefined)	1.2	0.731	1.7	-0.3	i	-5.1	-8.7	-0.8	0.0	-7.2
CSc1nnc(NC(=O)C2CCCCC2)s1	0.3	0.755	3.4	-1.0	i	.	-3.5	14.1	16.9	-0.4
CC(C)C[C@H](NC(=O)c1[nH]cnc1C(=O)N[C@@H](C)c1ccccc1)C(=O)OC(C)(C)C	.	.	4.4	-1.7	i	25.6	-4.1	-8.2	-24.0	-0.1
O=C(N/N=C/c1cccs1)c1ccc2ccccc2c1	0.1	.	.	-0.3	i	-12.9	3.4	2.4	5.6	-1.5
O=C(COC(=O)CCC(=O)c1ccc(F)cc1)Nc1ccc(F)cc1F	-2.0	0.672	-0.6	0.4	i	-0.7	-4.5	20.2	20.1	-0.4
Cc1cc(-c2onc3ccc(Cl)cc23)ccc1O	2.0	0.635	-5.1	-0.5	i	5.0	0.0	-31.4*	-24.1*	2.3*
O=C(COC(=O)c1ccccc1O)Nc1ccc(OC(F)F)cc1	.	0.726	4.0	0.0	.	-6.7	-8.6	.	.	.
C=CCOCCN(C)C1=NS(=O)(=O)c2ccccc21	-1.7	0.651	-0.3	-0.2	.	-3.5	-0.8	.	.	.
O=C(NC(c1ccccc1)c1ccccc1)C1(c2cccs2)CCOCC1	.	0.727	-0.4	0.0	.	8.5	-1.9	.	.	.
COc1ccc(C(CNCC(=O)Nc2ccccc2F)N(C)C)cc1 (centres undefined)	-3.5	0.667	5.4	0.5	i	-6.6	-5.4	-16.7	-37.3	-7.1
COc1ccccc1CC(=O)Nc1ccc(-c2noc(COc3ccc(Br)cc3)n2)cc1	.	0.727	3.8	0.5	.	18.5	-0.4	.	.	.
Clc1nc(-c2ccccc2)cc(-c2ccc(Br)cc2)n1	-54.0	0.738	5.2	1.1	i	30.4	6.5	17.7	23.7	-11.0
Cc1ccc(C(=O)C(=O)c2ccc(C)c(N)c2)cc1N	5.0	0.675	5.4	-0.8	i	1.3	-9.7	0.2	8.1	-2.3
COc1cc(-c2nnco2)cc(OC)c1OC	-1.0	0.673	4.1	0.5	i	-14.8	0.5	16.4	6.0	0.5
O=S(=O)(Cc1ccccc1Cl)CC(O)COc1ccccc1Cl (centres undefined)	.	0.662	2.4	0.3	.	-12.5	-4.8	.	.	.
COC(=O)Cc1c(C)nc2nc(-c3ccccc3)[nH]n2c1=O	.	0.775	-0.1	-1.4	.	1.7	1.2	.	.	.
Cc1ccc(NC(=O)CN(C)C(=O)CN2C(=O)NC(C)(c3ccccc3)C2=O)cc1 (centres undefined)	.	0.69	6.8	0.1	.	15.3	-2.2	.	.	.
CCOC(=O)CCNC(=O)c1ccccc1Br	.	0.708	1.8	0.8	.	-1.6	0.3	.	.	.
COc1cc(/C=N/N=C2/NC(=O)C(CC(=O)O)S2)ccc1OCc1cccc(Cl)c1 (centres undefined)	-2.4	.	.	0.9	i	14.5	-2.0	-2.4	-15.6	-2.2
CCOC(=O)N1CCN(C(=O)CSc2nnc(-c3cccc(Cl)c3)o2)CC1	-16.2	0.756	0.3	-0.4	i	6.0	0.1	9.9	15.3	4.1
COc1ccccc1NC(=O)NC1CC(=O)N(c2ccc3c(c2)OCCO3)C1 (centres undefined)	3.5	0.61	3.1	0.0	i	-14.4	.	3.4	3.8	-1.1
CCc1ccccc1N=C1S/C(=C/c2ccccc2OCC(=O)N2CCOCC2)C(=O)N1C	.	0.698	7.4	-1.4	.	24.5	1.3	.	.	.
O=c1c(Cc2ccc(Cl)cc2)c(O)ccn1Cc1cccc(Cl)c1	.	0.76	5.0	1.7	.	-9.9	1.1	.	.	.
CC(C)C[C@H](NC(=O)c1nc[nH]c1C(=O)NCC(=O)OC(C)(C)C)C(=O)OC(C)(C)C	4.8	.	-1.2	0.0	i	4.1	0.3	-16.5	-33.2	28.9
O=C(NCCc1ccc(C(F)(F)F)cc1)C1CC(=O)N(c2ccc3c(c2)OCCO3)C1 (centres undefined)	0.4	0.699	0.8	0.1	i	.	-3.6	4.8	5.7	0.0
O=C(NC(=S)Nc1ccc(NC(=O)c2cccs2)cc1)c1ccco1	.	0.655	0.1	-0.4	.	8.4	-0.5	.	.	.
Cc1ccc(S(=O)(=O)N(C)CCCC(=O)NC(C)(C)CO)cc1	-0.7	0.703	0.8	-0.5	i	-6.2	-11.5	10.3	5.7	-10.6
Brc1c(C[n+]2ccccc2)nc2ccccn12	0.5	0.709	4.5	0.7	i	-23.1	-3.6	.	.	.
CCc1c(O)nc(SCC(=O)Nc2cc(C)on2)n(-c2ccccc2)c1=O	-3.9	0.725	2.5	2.1	i	-14.5	.	4.6	3.6	-0.9
C=CCOC(=O)C1=C[C@@H](c2ccccc2)[C@H](CCCO)[C@@H](OCC)O1	-2.8	.	-2.2	-0.2	i	-11.0	-1.3	0.0	-1.9	5.5
COc1ccc(C(=O)NC2CC(C)(C)NC(C)(C)C2)cc1OC	-0.5	0.619	2.0	-0.1	.	-20.5	-2.2	6.0	13.7	0.1
CCOC(=O)c1c(NC(=O)CSc2nc3ccccc3s2)sc(C)c1C	.	0.713	-0.8	0.2	.	22.1	-1.1	0.3	-2.2	-0.7
O=C(Cn1c(=O)[nH]n(-c2ccccc2)c1=O)N1CCCc2ccccc21	.	0.705	3.4	-0.4	.	-8.8	-13.7	.	.	.
CCOC(=O)NN=C1CCC(c2ccccc2)CC1 (centres undefined)	0.4	0.728	4.8	0.9	i	6.3	-13.0	12.9	10.2	0.3
Cc1ccc(NC(=O)CSc2nc(C)c(C)c(C)n2)cc1S(=O)(=O)N1CCOCC1	1.5	0.674	2.2	2.4	i	.	-8.6	-3.3	-11.0	-2.1
Cc1cc(Cl)c(S(=O)(=O)NC2CCCC2)cc1OCC(=O)NC1CCCCC1	.	0.692	6.4	0.1	.	-3.0	26.8	.	.	.
Cc1ccc(-n2c(-c3ccc(Cl)cc3)c[n+]3c2CCC3)cc1	0.1	0.644	3.3	2.2	.	31.0	71.8	-9.3	35.3	21.0
O=S1(=O)CCC(N=Cc2ccc(-c3ccc(Cl)cc3)o2)C1 (centres undefined)	2.4	.	1.2	0.5	i	19.6	-0.1	8.9	0.2	0.9
CS(=O)(=O)N1CCC(C(=O)Nc2c(F)cccc2F)CC1	.	0.726	-1.0	1.7	.	-13.6	3.6	.	.	.

By substructure, those above containing fluorine.
SMILES	MLL AF4-AF9 inh	E coli growth	UCH37 inh	Bfl-1 A1 inh	FGF22 binding	T cruzi inh	Beta apoptosis	rRNA inh HTS	rRNA inh HTS OD600	rRNA inh HTS RFP
Cc1ccc(NC(=O)CN2C(=O)COc3ccc(S(=O)(=O)N4CCOCC4)cc32)cc1F	1.9	0.69	0.5	2.7	i	-0.1	-5.0	-0.5	2.7	-1.0
O=C(COC(=O)CCC(=O)c1ccc(F)cc1)Nc1ccc(F)cc1F	-2.0	0.672	-0.6	0.4	i	-0.7	-4.5	20.2	20.1	-0.4
O=C(COC(=O)c1ccccc1O)Nc1ccc(OC(F)F)cc1	.	0.726	4.0	0.0	.	-6.7	-8.6	.	.	.
COc1ccc(C(CNCC(=O)Nc2ccccc2F)N(C)C)cc1 (centres undefined)	-3.5	0.667	5.4	0.5	i	-6.6	-5.4	-16.7	-37.3	-7.1
O=C(NCCc1ccc(C(F)(F)F)cc1)C1CC(=O)N(c2ccc3c(c2)OCCO3)C1 (centres undefined)	0.4	0.699	0.8	0.1	i	.	-3.6	4.8	5.7	0.0
CS(=O)(=O)N1CCC(C(=O)Nc2c(F)cccc2F)CC1	.	0.726	-1.0	1.7	.	-13.6	3.6	.	.	.

Remaining list, next part.
SMILES	MLL AF4-AF9 inh	E coli growth	UCH37 inh	Bfl-1 A1 inh	FGF22 binding	T cruzi inh	Beta apoptosis	rRNA inh HTS	rRNA inh HTS OD600	rRNA inh HTS RFP
COCCn1c(N)c(N(Cc2ccccc2)C(=O)c2oc3ccccc3c2C)c(=O)[nH]c1=O	0.9	0.686	1.9	0.1	i	34.7	-2.2	3.9	-0.4	1.1
O=C(COC(=O)c1cc(S(=O)(=O)N2CCOCC2)ccc1F)c1ccc[nH]1	.	0.588	1.1	0.0	.	0.8	0.6	.	.	.
O=C(CCCN1CCC(O)(c2cccc(C(F)(F)F)c2)CC1)c1ccc(F)cc1	0.1	0.67	5.3	0.4	i	.	-3.2	.	.	.
Cc1ccc(-n2c(SCC3CCCCO3)nnc2-c2ccco2)cc1 (centres undefined)	.	0.72	0.2	0.6	.	22.5	-5.2	.	.	.
CN(C(=O)c1cc2ccccc2oc1=O)C1(C)CCS(=O)(=O)C1 (centres undefined)	-0.1	0.728	-0.3	0.9	i	1.7	-2.5	12.2	6.3	-0.4
CCCNC(=O)c1ccc(COc2ccc(C(C)(C)C)cc2)o1	-4.5	0.647	1.4	-0.3	i	5.6	13.0	6.4	-22.3	10.9
CCC(=O)C1CCCN(C(=O)c2ccc3nc(-c4cccc(OC)c4)oc3c2)C1 (centres undefined)	0.9	0.699	2.5	0.3	i	10.4	2.7	-9.7	-24.5	-2.3
Cc1nc(N2CCCCC2)nc(N2CCCCC2)c1C=O	-4.8	0.693	4.6	0.0	i	-7.2	5.5	7.2	-6.1	3.6

5 of the entries above in order of the MLL AF4-AF9 inh value, falling.
Structure	MLL AF4-AF9 inh
COCCn1c(N)c(N(Cc2ccccc2)C(=O)c2oc3ccccc3c2C)c(=O)[nH]c1=O	0.9
O=C(CCCN1CCC(O)(c2cccc(C(F)(F)F)c2)CC1)c1ccc(F)cc1	0.1
CN(C(=O)c1cc2ccccc2oc1=O)C1(C)CCS(=O)(=O)C1 (centres undefined)	-0.1
CCCNC(=O)c1ccc(COc2ccc(C(C)(C)C)cc2)o1	-4.5
Cc1nc(N2CCCCC2)nc(N2CCCCC2)c1C=O	-4.8

These rows are one share of the data; rates above refer to the full screens.
